# Vaccinia stage: Vaccinia orthopox stage-specific inhibition. actives 0.01% (n = 89,000). Vaccinia-infected cells, mCherry/Venus stage reporter fluorescence; hits give low values; some inactives read as strong as hits. activity change (mCherry), % (test concentration not listed);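 active = mCherry past -33% and 40 or more points under the early reporter, replicates agreeing; inconclusive = past -33% without that gap or agreement; tested in A549 cells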;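 also: scaled between vehicle wells and reference inhibitor wells; 23 nL library stock went into each well; one replicate is shown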
# Vaccinia stage Venus: further read-out of Vaccinia stage, marked with its call; activity change (Venus), %; measured here: Venus reporter, other viral stage;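 negative = less Venus signal; first of two replicates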
# Starred values were filed as active, the others as inactive; ? = inconclusive; nt = no result given; & = joins results of further samples.
SMILES,Vaccinia stage,Vaccinia stage Venus
Cc1ccc(S(=O)(=O)N(C)C[C@H]2Oc3ccc(NC(=O)c4ccncc4)cc3CC(=O)N([C@@H](C)CO)C[C@H]2C)cc1,-8,-15
COCC#Cc1ccc2c(c1)O[C@@H](CN(C)C(=O)c1ccccc1)[C@@H](C)CN([C@@H](C)CO)S2(=O)=O,0,-4
CC(=O)N1[C@@H]2c3ccc(-c4ccncc4)c(=O)n3C[C@@H]2[C@@H](CO)[C@@H]1C(=O)NCc1ccccc1Cl,11,7
O=C(c1ccc2c(c1)OCO2)N1CC(=O)N2[C@H](CO)[C@H](c3ccc(-c4ccccc4)cc3)[C@@H]2C1,-14,-7
CCCC#Cc1ccc([C@@H]2[C@@H](CO)N(S(C)(=O)=O)[C@H]2C#N)cc1,-18,-8
C[C@H](CO)N1C[C@H](C)[C@H](CN(C)Cc2ccc(Cl)c(Cl)c2)Oc2ccc(NC(=O)Nc3ccc(C(F)(F)F)cc3)cc2CC1=O,?,nt
NCC[C@H]1CC[C@H](NS(=O)(=O)c2ccc(Cl)cc2)[C@H](CO)O1,-1,14
O=C1CN(S(=O)(=O)Cc2ccccc2)C[C@H]2[C@H](c3ccc(C#CC4CC4)cc3)[C@H](CO)N12,-15,-5
O=C(N1CCCCC1)[C@@]1(Cc2ccccc2)COC(c2ccc(OCCCO)cc2)=N1,13,16
COc1cccc(-c2ccc([C@H]3[C@@H](CO)N4CCCCN(C(=O)NC(C)C)C[C@H]34)cc2)c1,-10,-18
COc1ccccc1C#Cc1ccc([C@H]2[C@H](C#N)N(C(=O)C3CCCC3)[C@H]2CO)cc1,?,nt
O=C(NC[C@H]1CC[C@H]2[C@H](CN2Cc2ccccc2F)O1)C1CC1,16,18
CC(=O)N(C)C[C@H]1[C@@H](c2ccc(-c3cccc(F)c3)cc2)[C@@H](CO)N1C(C)=O,-20,-15
C[C@@H]1CN([C@H](C)CO)C(=O)c2cc(C#Cc3ccccc3F)cnc2O[C@H]1CN(C)S(C)(=O)=O,1,-6
O=C(C[C@@H]1C[C@H]2c3cc(NC(=O)C4CCOCC4)ccc3O[C@H]2[C@H](CO)O1)NC1CCCCC1,12,2

# Next part; it opens with the 2 that closed the last part.
SMILES,Vaccinia stage,Vaccinia stage Venus
C[C@@H]1CN([C@H](C)CO)C(=O)c2cc(C#Cc3ccccc3F)cnc2O[C@H]1CN(C)S(C)(=O)=O,1,-6
O=C(C[C@@H]1C[C@H]2c3cc(NC(=O)C4CCOCC4)ccc3O[C@H]2[C@H](CO)O1)NC1CCCCC1,12,2
Cc1ccc(S(=O)(=O)N[C@@H]2CC[C@H](CCNC(=O)C3CC3)O[C@H]2CO)cc1,-3,0
CC(=O)N(C)C[C@H]1Oc2ncc(-c3ccccc3F)cc2C(=O)N([C@@H](C)CO)C[C@@H]1C,14,11
C[C@@H]1CN([C@@H](C)CO)C(=O)c2cc(NC(=O)CCN3CCOCC3)ccc2O[C@H]1CN(C)S(=O)(=O)c1cn(C)cn1,8,12
C[C@H](CO)N1C[C@H](C)[C@@H](CN(C)S(=O)(=O)c2cccs2)Oc2ccc(NC(=O)Nc3cccc4ccccc34)cc2C1=O,19,18
O=C(N[C@@H]1CC[C@H](CCNS(=O)(=O)c2ccc(F)cc2)O[C@H]1CO)C1CCCC1,-4,5
C[C@H]1CCCCO[C@H](CN(C)C(=O)Nc2ccc(F)cc2)[C@@H](C)CN([C@@H](C)CO)C(=O)c2cc(NS(=O)(=O)c3cccs3)ccc2O1,?,nt
CO[C@H]1CN(C)C(=O)c2cc(NC(=O)C3CC3)ccc2OC[C@@H](C)N(C(C)=O)C[C@@H]1C,4,4
CO[C@@H]1CN(C)C(=O)c2cc(NC(=O)c3ccccc3F)ccc2OC[C@@H](C)N(C(C)=O)C[C@@H]1C,-1,-5
CO[C@@H]1CN(C)C(=O)c2ccc(NS(=O)(=O)c3cn(C)cn3)cc2OC[C@@H](C)N(Cc2cccc(F)c2)C[C@H]1C,-1,-6
C[C@@H]1CN([C@@H](C)CO)C(=O)c2cc(C#CC3(O)CCCC3)cnc2O[C@@H]1CN(C)Cc1cncnc1,5,9
O=C(NCC[C@@H]1CC[C@H](NC(=O)C2CCCC2)[C@H](CO)O1)c1ccc(F)cc1,1,-3
CCCC#Cc1ccc([C@H]2[C@H](C#N)N(C(=O)CN3CCOCC3)[C@H]2CO)cc1,15,5
C[C@H](CO)N1C[C@H](C)[C@@H](CN(C)CC2CCCCC2)Oc2ccc(NC(=O)CCC(F)(F)F)cc2C1=O,-2,-3
COCCNC(=O)[C@H]1[C@H](CO)[C@H]2Cn3c(cccc3=O)[C@@H]1N2Cc1cccc(Cl)c1,12,3
CO[C@H]1CN(C)C(=O)c2ccc(NS(=O)(=O)CC(F)(F)F)cc2OC[C@H](C)N(Cc2cccnc2)C[C@@H]1C,4,11
O=C(C[C@@H]1CC[C@H]2[C@@H](COC[C@@H](O)CN2Cc2ccc(Cl)cc2)O1)Nc1nccs1,?,nt
C[C@H](CO)N1C[C@H](C)[C@@H](CN(C)Cc2ccccc2)Oc2ccc(NC(=O)Cc3ccccc3)cc2CC1=O,-11,5
C[C@@H]1CN([C@H](C)CO)S(=O)(=O)c2ccc(/C=C/c3ccccc3)cc2O[C@H]1CN(C)Cc1ccc(C(=O)O)cc1,?,nt
O=C(C[C@@H]1CC[C@@H](NC(=O)Nc2ccc(F)cc2)[C@@H](CO)O1)NCc1ccccn1,8,-2
CC(C)NC(=O)N[C@H]1C=C[C@H](CC(=O)NCCCN(C)C)O[C@@H]1CO,-1,5
C[C@@H]1CN([C@@H](C)CO)C(=O)c2cc(NS(=O)(=O)c3ccccc3)ccc2O[C@@H](C)CCCCO[C@H]1CN(C)S(=O)(=O)c1cn(C)cn1,14,16
O=C(NCC[C@@H]1CC[C@H](NC(=O)c2ccc3c(c2)OCO3)[C@H](CO)O1)Nc1cc(F)ccc1F,-7,-2
COc1ccccc1CNC(=O)C[C@H]1C[C@H]2c3cc(NC(=O)c4cccnc4)ccc3O[C@H]2[C@@H](CO)O1,2,10
CN1[C@@H]2c3ccc(C4=CCCC4)c(=O)n3C[C@H]1[C@H](CO)[C@H]2C(=O)N1CCCCC1,13,6
C[C@@H]1CN([C@H](C)CO)C(=O)Cc2cc(NC(=O)C3CC3)ccc2O[C@@H]1CN(C)C(=O)Nc1ccc(F)cc1,7,2
C#CCNC(=O)C1=C[C@@H](c2ccc(C#C)cc2)[C@H](CCCO)[C@@H](OCC)O1,14,4
CC12N=C3SCC(=O)N3[C@H](c3ccccc3O1)[C@H]2CO[Si](C)(C)C(C)(C)C,12,-1
C[C@@H]1CCCCO[C@@H](CN(C)Cc2ccncc2)[C@H](C)CN([C@H](C)CO)C(=O)c2cc(NC(=O)Nc3ccc4c(c3)OCO4)ccc2O1,-13,-13
O=C(C[C@@H]1C=C[C@H](NC(=O)Nc2ccc3c(c2)OCO3)[C@@H](CO)O1)NCc1ccc2c(c1)OCO2,5,4
C[C@@H]1CN([C@@H](C)CO)S(=O)(=O)c2ccc(-c3cccc(C#N)c3)cc2O[C@H]1CN(C)C(=O)c1ccccc1,-21,-28

# Part of the list above, reformatted:
Molecule	Vaccinia stage	Vaccinia stage Venus
COCC#Cc1ccc2c(c1)O[C@@H](CN(C)C(=O)c1ccccc1)[C@@H](C)CN([C@@H](C)CO)S2(=O)=O	0	-4
CC(=O)N1[C@@H]2c3ccc(-c4ccncc4)c(=O)n3C[C@@H]2[C@@H](CO)[C@@H]1C(=O)NCc1ccccc1Cl	11	7
O=C(c1ccc2c(c1)OCO2)N1CC(=O)N2[C@H](CO)[C@H](c3ccc(-c4ccccc4)cc3)[C@@H]2C1	-14	-7
CCCC#Cc1ccc([C@@H]2[C@@H](CO)N(S(C)(=O)=O)[C@H]2C#N)cc1	-18	-8
C[C@H](CO)N1C[C@H](C)[C@H](CN(C)Cc2ccc(Cl)c(Cl)c2)Oc2ccc(NC(=O)Nc3ccc(C(F)(F)F)cc3)cc2CC1=O	?	nt
NCC[C@H]1CC[C@H](NS(=O)(=O)c2ccc(Cl)cc2)[C@H](CO)O1	-1	14
O=C1CN(S(=O)(=O)Cc2ccccc2)C[C@H]2[C@H](c3ccc(C#CC4CC4)cc3)[C@H](CO)N12	-15	-5
O=C(N1CCCCC1)[C@@]1(Cc2ccccc2)COC(c2ccc(OCCCO)cc2)=N1	13	16
COc1cccc(-c2ccc([C@H]3[C@@H](CO)N4CCCCN(C(=O)NC(C)C)C[C@H]34)cc2)c1	-10	-18
COc1ccccc1C#Cc1ccc([C@H]2[C@H](C#N)N(C(=O)C3CCCC3)[C@H]2CO)cc1	?	nt
O=C(NC[C@H]1CC[C@H]2[C@H](CN2Cc2ccccc2F)O1)C1CC1	16	18
CC(=O)N(C)C[C@H]1[C@@H](c2ccc(-c3cccc(F)c3)cc2)[C@@H](CO)N1C(C)=O	-20	-15
C[C@@H]1CN([C@H](C)CO)C(=O)c2cc(C#Cc3ccccc3F)cnc2O[C@H]1CN(C)S(C)(=O)=O	1	-6
O=C(C[C@@H]1C[C@H]2c3cc(NC(=O)C4CCOCC4)ccc3O[C@H]2[C@H](CO)O1)NC1CCCCC1	12	2
Cc1ccc(S(=O)(=O)N[C@@H]2CC[C@H](CCNC(=O)C3CC3)O[C@H]2CO)cc1	-3	0
CC(=O)N(C)C[C@H]1Oc2ncc(-c3ccccc3F)cc2C(=O)N([C@@H](C)CO)C[C@@H]1C	14	11
C[C@@H]1CN([C@@H](C)CO)C(=O)c2cc(NC(=O)CCN3CCOCC3)ccc2O[C@H]1CN(C)S(=O)(=O)c1cn(C)cn1	8	12
C[C@H](CO)N1C[C@H](C)[C@@H](CN(C)S(=O)(=O)c2cccs2)Oc2ccc(NC(=O)Nc3cccc4ccccc34)cc2C1=O	19	18
O=C(N[C@@H]1CC[C@H](CCNS(=O)(=O)c2ccc(F)cc2)O[C@H]1CO)C1CCCC1	-4	5
C[C@H]1CCCCO[C@H](CN(C)C(=O)Nc2ccc(F)cc2)[C@@H](C)CN([C@@H](C)CO)C(=O)c2cc(NS(=O)(=O)c3cccs3)ccc2O1	?	nt

# Additional records
SMILES,Vaccinia stage,Vaccinia stage Venus
C[C@H]1CN([C@@H](C)CO)C(=O)Cc2cc(NC(=O)Nc3ccc(F)cc3)ccc2O[C@@H]1CN(C)Cc1ccncc1,-5,1
C[C@@H]1CN([C@@H](C)CO)C(=O)CCCn2nncc2CO[C@H]1CN(C)C(=O)Nc1cccc2ccccc12,3&16,10&21
COc1ccc(S(=O)(=O)N[C@H]2C=C[C@H](CC(=O)NCCc3ccccc3)O[C@@H]2CO)cc1,7,6
C[C@H]1CN([C@@H](C)CO)C(=O)c2cc(NC(=O)Nc3cccc4ccccc34)ccc2O[C@H]1CN(C)Cc1ccc(-c2ccccc2)cc1,-23,-10
CCN1[C@H](C(=O)NCc2ccccc2)[C@@H](CO)[C@@H]2Cn3c(ccc(-c4cccnc4)c3=O)[C@@H]21,-11,-2
CCS(=O)(=O)N1CC2(CN(C(=O)Nc3c(C)noc3C)[C@@H](CO)c3c2c2ccc(OC)cc2n3C)C1,-7,-6
O=C(Cc1ccncc1)NCC[C@@H]1CC[C@H](NC(=O)Nc2ccc(Cl)cc2)[C@@H](CO)O1,6,12
C[C@@H]1CCCCO[C@H](CN(C)C(=O)Nc2ccccc2)[C@@H](C)CN([C@@H](C)CO)C(=O)c2cc(NC(=O)c3ccccc3)ccc2O1,-9,-10
COCC(=O)N(C)C[C@H]1Oc2ncc(-c3ccccc3C)cc2C(=O)N([C@H](C)CO)C[C@@H]1C,4,-1
Cc1cccc(S(=O)(=O)N2CCCCN3[C@H](CO)[C@@H](c4ccc(-c5ccccc5)cc4)[C@@H]3C2)c1,3,1
C[C@H]1CN([C@@H](C)CO)S(=O)(=O)c2ccc(-c3ccccc3)cc2O[C@H]1CN(C)C(=O)CN(C)C,2,-3
C[C@@H]1CN([C@H](C)CO)C(=O)c2c(c3ccccc3n2C)-c2ccccc2CO[C@@H]1CN(C)C(=O)Oc1ccccc1,?,nt
COc1ccc(S(=O)(=O)Nc2ccc3c(c2)CC(=O)N([C@H](C)CO)C[C@@H](C)[C@H](CN(C)S(=O)(=O)c2cccs2)O3)cc1,15,11
C[C@@H]1CCCCO[C@H](CN(C)C)[C@H](C)CN([C@@H](C)CO)C(=O)c2cc(NS(=O)(=O)c3cccs3)ccc2O1,13,0
O=C(CCN1CCCCC1)NCC[C@H]1CC[C@H](NC(=O)C2CC2)[C@H](CO)O1,-6,-9
C[C@@H]1CN([C@H](C)CO)C(=O)c2cccc(NC(=O)c3ccc(-c4nccs4)cc3)c2O[C@H]1CN(C)Cc1ccc2c(c1)OCO2,?,nt
C[C@H]1CN([C@@H](C)CO)S(=O)(=O)c2ccc(C3=CCCCC3)cc2O[C@H]1CN(C)Cc1cncnc1,-21,-24
C[C@H](CO)N1C[C@H](C)[C@H](CN(C)Cc2ccc(Cl)c(Cl)c2)Oc2c(NC(=O)Nc3ccc4c(c3)OCO4)cccc2C1=O,-19,-15
C[C@@H]1CCCCO[C@H](CN(C)Cc2ccncc2)[C@@H](C)CN([C@@H](C)CO)C(=O)c2cc(N(C)C)ccc2O1,-2,11
C[C@H]1CN([C@@H](C)CO)C(=O)c2cc(NC(=O)Nc3ccc(F)cc3)ccc2O[C@H]1CN(C)S(=O)(=O)c1cn(C)cn1,-4,13
Cc1ccc(S(=O)(=O)N[C@@H]2C=C[C@H](CC(=O)NCCc3ccncc3)O[C@H]2CO)cc1,2,-1
O=S(=O)(Cc1ccccc1)N1CCCCN2[C@@H](CO)[C@@H](c3ccc(-c4ccccc4)cc3)[C@@H]2C1,?,nt

# An excerpt (hit frequency here may not be typical).
